Screening results (PubChem)
Tgondii IFNg = T. gondii growth inhibition with IFN-gamma, primary screen, cell-based | 69,000 compounds, 3.8% hits | activity change, negative = inhibition, %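 (about 20 µM by stock and volumes)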 | Toxoplasma gondii growth in IFN-gamma-treated host cells; active compounds read low; reference of the scale not given here | AID 1259416, 2018;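 active = below -70%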;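 also: host cells are HeLa cells infected with Toxoplasma gondii; parasite growth read as luciferase light; one replicate is shown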
Starred values were filed as active, the others as inactive; i = inactive; & = joins results of further samples. Only part of the results is shown; rates above refer to the full screens.

SMILES	Tgondii IFNg
O=C(C[C@@H]1CC[C@H]2[C@@H](COC[C@@H](O)CN2Cc2ccc3c(c2)OCO3)O1)N1CCCCC1	5
Cc1noc([C@H]2CNC(=O)[C@H]3CCN(CC(C)C)CC[C@H]32)n1	-1
COc1ccc(CN2CCC(c3cc(C(C)C)n[nH]3)CC2)c(F)c1F	-4
CN1c2cc(Cl)ccc2C(=O)NC12CCN(C(=O)Nc1ccc3c(c1)OCCO3)CC2	i
Cc1nnc2c3ccccc3c(Cl)nn12	-1
COc1ccc(-c2nc(Cn3nnc(C(=O)Nc4ccccc4OC)c3C)c(C)o2)c(OC)c1	145
COc1cc(OC)cc(C(=O)N2CCC3(CC2)NC(=O)c2cc(Cl)ccc2N3C)c1	-16
COc1ccc2c3c([nH]c2c1)[C@@H](CO)NCC31CN(C(=O)Nc2ccc3c(c2)OCO3)C1	-11
CN1CCN([C@H]2CN(Cc3cc(C(C)(C)C)ccc3O)C[C@@H]2O)CC1	-14
Cc1cc(-c2ccccc2)nc(C2CCCN2S(C)(=O)=O)n1 (stereo unspecified)	5
CCC(CC)NC(=O)c1ccc2c(c1)C(c1ncn[nH]1)CN2C(=O)c1ccccc1 (stereo unspecified)	-12
COCC1(C(=O)N(C)Cc2cc(-c3cccs3)n[nH]2)CCC1	-13

Brought forward from above: three compounds, then new ones.
SMILES	Tgondii IFNg
Cc1cc(-c2ccccc2)nc(C2CCCN2S(C)(=O)=O)n1 (stereo unspecified)	5
CCC(CC)NC(=O)c1ccc2c(c1)C(c1ncn[nH]1)CN2C(=O)c1ccccc1 (stereo unspecified)	-12
COCC1(C(=O)N(C)Cc2cc(-c3cccs3)n[nH]2)CCC1	-13
CCc1ccccc1NC(=O)N1CCN(Cc2nc(-c3cccc(Cl)c3)oc2C)CC1	3
Cc1nc(C(C)N(C)C(=O)CCN2CCCCCC2=O)c(C)s1 (stereo unspecified)	6
CN1CCO[C@@H]2CN(C(=O)c3ccc(F)c(F)c3)C[C@@H]2C1	i
CN(C)C(=O)N[C@H]1CN(Cc2nccn2C)C2CCCOC21 (stereo partly specified)	4
COc1ccc(CNC(=O)Cn2c(=O)n(Cc3ccc(F)cc3)c(=O)c3ccccc32)cc1	-73*
Cc1cc(-c2cc(=O)n(CC(=O)Nc3ccc(F)cc3F)nc2-c2ccc(C)s2)on1	-5
Fc1cccc(CSc2nc(NCc3ccc(Cl)cc3)c3ccccc3n2)c1	4
C[C@@H]1CN(c2ccnc(C(=O)NCc3cn4ccccc4n3)c2)C[C@H](C)O1	12
COc1ccc(C#Cc2ccc3c(c2)[C@H]2[C@H](CCN2C(=O)Nc2ccc(C(F)(F)F)cc2)[C@@H](CO)N3C)cc1	4
COc1ccc(CCNC(=O)CSc2nc(C(C)(C)C)nc3ccccc23)cc1OC	-1
CN(C)c1ncnc2c1CCN(C(=O)NC1CCCC1)CC2	211
COC(=O)[C@@H]1CCCN1Cc1nc(-c2cc(OC)c3c(c2)OCO3)oc1C	-42
Cc1ccccc1-n1nc(C)c(CN(Cc2ccccn2)Cc2ccco2)c1C	-27
CN(C)C(=O)n1c(C(=O)NCc2ccco2)cc2c1c1ccccc1n2CC1CC1	-6
CN(C)C(=O)c1cccc(-c2ccccc2[C@@H]2[C@@H](C#N)N(C(=O)C3CCCCC3)[C@H]2CO)c1	-21
O=C(Cc1nc2ccccc2[nH]1)NC1CCCN(Cc2cccnc2)C1 (stereo unspecified)	-2
Cc1nonc1CN(C)Cc1cn(-c2ccccc2)nc1-c1ccc2c(c1)OCO2	-12
OCc1cncc(F)c1	9
CN1C(=O)CCc2cc(NC(=O)c3ccoc3)ccc21	-44
NC(c1ccc2c(c1)OCCO2)c1ccco1 (stereo unspecified)	-23
CC(=O)c1c(C)cc(C)c(-c2nccn2CCc2n[nH]c(=O)[nH]2)c1C	5
COC(=O)CC1C(=O)NCCN1C(=O)c1ccccc1 (stereo unspecified)	1
Cc1cc(N2CCCN(Cc3cc(-c4ccccc4)no3)CC2)ccn1	-20
CN(CCCC1CCCO1)Cc1cc2n(n1)CCNC2 (stereo unspecified)	-48

An excerpt from above in order of heavy-atom count, descending:
SMILES	Tgondii IFNg
Cc1nonc1CN(C)Cc1cn(-c2ccccc2)nc1-c1ccc2c(c1)OCO2	-12
CN1C(=O)CCc2cc(NC(=O)c3ccoc3)ccc21	-44
NC(c1ccc2c(c1)OCCO2)c1ccco1 (stereo unspecified)	-23

Other entries.
SMILES	Tgondii IFNg
O=C(c1cccnc1)N1CCn2cc(CN3CCCC3)nc2C1	-4
CC(C)C#Cc1ccc([C@@H]2[C@@H](CO)N(C(=O)c3cccc(F)c3)[C@H]2C#N)cc1	-42
Cc1nc(-c2ccc(F)cc2)sc1CCNC(=O)C(=O)Nc1ccccc1	-31
O=C1N(Cc2ccncc2)CCC12CCCN(c1ncc(F)cn1)C2 (stereo unspecified)	3
CCc1nc(SCC(=O)N2CCC(c3cc(OC)ccc3OC)C2)n[nH]1 (stereo unspecified)	-1
CN1CCOCC1c1csc(-c2ccccc2)n1 (stereo unspecified)	5
COc1cc2sc(NC(=O)Cc3c(C)noc3C)nc2cc1Cl	-79*
COCCN(Cc1cccs1)C(=O)c1ccc(C)cc1OC	7
CCC1C(=O)N=C(SCC(=O)NCc2ccccc2)NC1=O (stereo unspecified)	-7
COc1ccccc1C(=O)Nc1cccc(NC(=O)C2[C@@H]3[C@H]4CC[C@H](C4)[C@H]23)c1 (stereo partly specified)	0
CN(C)C(=O)N1CCC(c2nc3ccc(Nc4ccccc4)cn3n2)CC1	-9
CC(C)N1CCc2c(nc(C3CCN(C(=O)c4ccncc4)CC3)[nH]c2=O)C1	-11
Cc1n[nH]c(C)c1Sc1ccccc1-n1cnnc1	168
O=C(CSc1nnc(-c2ccccn2)n1Cc1ccccc1)Nc1ccc2c(c1)OCO2	-43
C[C@H](CO)N1C[C@H](C)[C@@H](CN(C)C(=O)NC2CCCC2)Oc2cc(-c3cncnc3)ccc2S1(=O)=O	21
O=C(C[C@@H]1CC[C@H](NS(=O)(=O)c2ccccc2F)[C@@H](CO)O1)NCCCN1CCOCC1	35
COc1ccc(CNC(=O)c2nc(Nc3ccc(C)cc3)c3ccccc3n2)cc1OC	-24
CN(Cc1nc(-c2ccncc2)no1)C(=O)c1cc2ccccc2s1	-3
CC(C)N1CCc2ncn(C(C)C)c2C1C(=O)NCCc1cccc(F)c1 (stereo unspecified)	-1
CC(=O)c1ccc(CN2CCCCC2CN2CCOCC2)cc1 (stereo unspecified)	-4
CNC(=O)OC(C)(C)C#Cc1cncnc1	16
COc1ccc(C2(NC(=O)c3cnc(N4CCOCC4)nc3)CCCC2)cc1	-80*
C=CCc1cc(CN2CCC3(CC2)CN(C)CCN3C)ccc1O	-57
CCCNC(=O)N1CC2(CN(Cc3cccc(F)c3)C2)c2c([nH]c3cc(OC)ccc23)[C@@H]1CO	141
COC(=O)C[C@@H]1CC[C@@H]2[C@@H](COc3ccc(NC(=O)c4ccc(C(F)(F)F)cc4)cc3C(=O)N2C)O1	16
CC(C)C1C=CCN1C(=O)C1(Oc2ccc(Cl)cc2)CCNCC1 (stereo unspecified)	-26
CCn1nc(C(C)C)cc1C(=O)N1CC[C@@H](c2sccc2C)[C@H](O)C1	-2
Cc1ccccc1-c1nc(CN2CCN(C(=O)Nc3cccc(C)c3C)CC2)c(C)o1	2
Cc1ccc(C(=O)Nc2ccc(-c3nc(Cn4cccn4)c(C)o3)cc2)cc1F	23
CO[C@@H]1CC[C@H]2CCOc3c(C#N)cccc3C(=O)N(C)CCCC(=O)N(C)C[C@@H]1O2	-30
Cc1ccc(C2=NC3(CCN(Cc4ccc(C)cc4C)CC3)NC2=O)cc1	-8
O=C(c1ccc(F)cc1)N1CCc2c([nH]c3ccccc23)C1c1ccccc1 (stereo unspecified)	63
CC(C)Cc1sc(N)nc1-c1ccc(P(=O)(O)O)o1	-4
COc1ccc(S(=O)(=O)Nc2ccc3c(c2)OCO3)cc1	-38
CCCN(CCC)c1nc(-c2ccc(OC)cc2)nc2ccccc12	-36
Cc1ccc(C)c(OCc2cc(C(=O)NCC3CCS(=O)(=O)C3)no2)c1 (stereo unspecified)	5
Cc1ccc(NC(=O)CC(=O)N2CCCCC2CCO)c(C)c1 (stereo unspecified)	-42
CN1CCn2c(-c3cccc(F)c3)cnc2C12CCN(C(=O)Cc1ccccn1)CC2	2
Cc1ccc(C(=O)C(C)OC(=O)c2cc(C)nc3ccccc23)cc1 (stereo unspecified)	-4
COc1cc(CN2CC3(CN(S(=O)(=O)c4cccc(F)c4)C3)c3c([nH]c4cc(OC)ccc34)[C@H]2CO)cc(OC)c1	-30
O=C(Nc1nc2c(s1)CCCCCC2)C1CC(=O)N(Cc2ccncc2)C1 (stereo unspecified)	-17
CC1CCN(c2ncnc3c2cnn3CC(=O)NCCCc2ccccc2)CC1	110
O=C(N/C(=C/C=C\c1ccccc1)C(=O)N1CCOCC1)c1ccc(Br)cc1	5
COCC(=O)N1CCCC2(CCC(=O)N2Cc2cccnc2)C1 (stereo unspecified)	-3
C[C@H]1CCCCO[C@H](CN(C)CC2CC2)[C@@H](C)CN([C@@H](C)CO)C(=O)c2cc(NC(=O)c3ccccc3)ccc2O1	79
OC[C@H]1[C@H]2c3ccccc3NC[C@H]2N1Cc1ccccc1Cl	-28
Cc1ccc(C(C)NC(=O)Cn2ncc3c(N4CCCCCC4)ncnc32)cc1 (stereo unspecified)	105
O=C(c1cc2cccnc2n(Cc2ccccc2F)c1=O)N1CCCc2ccccc21	4

Looked up by compound from the list above:
SMILES	Tgondii IFNg
C[C@H]1CCCCO[C@H](CN(C)CC2CC2)[C@@H](C)CN([C@@H](C)CO)C(=O)c2cc(NC(=O)c3ccccc3)ccc2O1	79
O=C(Nc1nc2c(s1)CCCCCC2)C1CC(=O)N(Cc2ccncc2)C1 (stereo unspecified)	-17

The list goes on.
SMILES	Tgondii IFNg
CC1c2ncc(COCC(=O)N3CCCC3)n2CCN1C (stereo unspecified)	60
CCOC(=O)CSc1nc(NCc2ccc(Cl)cc2)c2ccccc2n1	-34
CN1C(=O)CCc2cc(NC(=O)CCCc3ccccc3)ccc21	81
Cc1ccc(CS(=O)(=O)N2CC[C@H]3[C@@H]2CCN3C)cc1	-20
C[C@H]1CN([C@@H](C)CO)C(=O)Cc2cc(NC(=O)CCCCCC(=O)Nc3ccccc3N)ccc2O[C@@H]1CN(C)S(=O)(=O)c1cccs1	-9
C/C=C/c1ccc(C2[C@@H]3CN(S(=O)(=O)c4cn(C)cn4)C[C@H]2N3)cc1 (stereo partly specified)	17&-4
CCCNC(=O)N1CC2(CCN(C(=O)C3CCOCC3)CC2)c2c([nH]c3cc(OC)ccc23)[C@H]1CO	1
CCc1cccc2c(CC(=O)NCCn3nc(C)nc3C)c(C)[nH]c12	205
CC(CCn1cccn1)NC(=O)C(C)(C)c1ccccc1 (stereo unspecified)	8
CN1C(=O)COc2cc(NS(=O)(=O)NCc3ccccc3)ccc21	8
Cn1cc(C(=O)NCc2cn3c(n2)CN(C(=O)c2ccoc2)CC3)cn1	-14
CC(=O)Nc1ccc(S(=O)(=O)NCc2nc(-c3cccc(Cl)c3)oc2C)cc1	2
CNC(=O)C[C@@H]1CC[C@@H]2[C@@H](COc3ccc(NC(=O)c4ccccc4F)cc3C(=O)N2C)O1	15
Cc1nc2nnc3ccc(C(=O)Cc4ccccn4)cc3c2n1Cc1ccccc1	-35
COc1ccc(-c2csc(CCNC(=O)Cc3c(C)noc3C)n2)cc1	7
CC(NC(=O)CCSCc1ccc(F)cc1)c1cn2ccsc2n1 (stereo unspecified)	3
CCOC(=O)C1CCN(Cc2cc(OC)c(OC)cc2OC)CC1	17
N#Cc1ccc(-c2ccc([C@@H]3[C@H](CO)N4C(=O)CNC[C@@H]34)cc2)cc1	39
CCOc1ccccc1-c1nc(CN2CCc3c(sc4c3CCCC4)C2c2ccccc2)c(C)o1 (stereo unspecified)	85
CC(C)c1ccc(NC(=O)CN2C(=O)CCc3cc(S(=O)(=O)N4CCOCC4)ccc32)cc1	-18
CCN1CCC2(CC1)OC(=O)C(C)=C2C(=O)NCCN1CCN(c2cccc(C)c2C)CC1	-42
CNc1cncc(C2CCCN2C(=O)C2CCN(C)CC2)n1 (stereo unspecified)	-4
O=C(C[C@H]1CC[C@H]2[C@@H](COC[C@H](O)CN2Cc2ccc(F)cc2)O1)NCCc1ccccc1	-14
O=C(C1CCCN(Cc2ccc(N3CCOCC3)c(F)c2)C1)N1CCCCCC1 (stereo unspecified)	-4

2 successive records from above:
SMILES	Tgondii IFNg
CC(C)c1ccc(NC(=O)CN2C(=O)CCc3cc(S(=O)(=O)N4CCOCC4)ccc32)cc1	-18
CCN1CCC2(CC1)OC(=O)C(C)=C2C(=O)NCCN1CCN(c2cccc(C)c2C)CC1	-42

Further compounds follow.
SMILES	Tgondii IFNg
COc1cccc(C(=O)N2CCN(Cc3ccc4nsnc4c3)CC2)c1	-4
CCC(C)N(Cc1cccnc1)C(=O)c1cccc(NC(=O)c2ccoc2C)c1 (stereo unspecified)	-19
Cc1nn(Cc2nnc(SCC(=O)O)n2-c2ccccc2F)c(C)c1C	1
Brc1ccc2[nH]c3c(Br)cc(Br)cc3c2c1	16
Cc1ccn2cc(CNC(=O)c3cccc(-n4cccn4)c3)nc2c1	0
CCc1cc2c(=O)n(Cc3ccco3)c(SC)nc2s1	28
COc1ccc2nc(CCNC(=O)CC(=O)Nc3cc(C)cc(C)c3)[nH]c2c1	-3
CC(C)(C)OC(=O)N1CCC[C@H]1C(=O)c1cccnc1	9
CN(Cc1cc(-c2ccccc2)no1)Cc1ccc(-c2ccn[nH]2)o1	-4
CCn1ncc(C(=O)NCc2cnn(-c3ccccc3OC)c2)c1C	3
C#CCOC(=O)Nc1cnc(OCC)c(C(F)(F)F)c1	-75*
